From PubChem BioAssay
GLA inh pH 4.5 = alpha-galactosidase A (human) inhibition, pH 4.5 | P06280 | purified enzyme, 4-MU-alpha-Gal fluorescence, pH 4.5 | activity change, negative = inhibition, % at 105 µM | 230,000 tested, under 10 active; inconclusive = small, poorly fitted or top-dose-only inhibition, or a rising curve; inactive = flat fitted curve, though single readings scatter; no compound was filed as active;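 also: 0% = full activity with enzyme and -100% = basal without enzyme; dose as in the result columns while the protocol names 77 µM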
Target sequence (P06280 whole entry, looked up): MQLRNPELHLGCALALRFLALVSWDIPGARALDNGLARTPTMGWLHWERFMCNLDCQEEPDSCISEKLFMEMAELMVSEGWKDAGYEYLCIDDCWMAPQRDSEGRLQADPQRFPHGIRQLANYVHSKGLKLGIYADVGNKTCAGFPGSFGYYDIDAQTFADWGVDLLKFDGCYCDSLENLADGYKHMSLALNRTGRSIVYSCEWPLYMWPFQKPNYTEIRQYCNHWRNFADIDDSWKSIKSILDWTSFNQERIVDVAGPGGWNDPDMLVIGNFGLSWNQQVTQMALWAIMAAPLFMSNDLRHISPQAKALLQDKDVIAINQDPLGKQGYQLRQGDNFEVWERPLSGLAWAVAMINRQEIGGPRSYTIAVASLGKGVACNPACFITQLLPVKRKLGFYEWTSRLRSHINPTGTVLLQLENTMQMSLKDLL
Rango dissoc inh = inhibitors of RanGTP-induced Rango-importin beta complex dissociation. O95149+P62826. Biochemical FRET Rango-importin beta, RanGTP-induced dissociation. Potency, µM (titrated, usually from 46.1 µM), without a hit: at the highest dose activity change, negative = inhibition. 0.071% of 340,000 active. AID 540253; active means falling FRET ratio curve, often poorly fitted, with flat reads before Ran was added; inconclusive means other falling curves, or compound fluorescence or quenching; inactive means flat or rising ratio curve;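 also: potency is read from the fitted curve at half-maximal effect; % of control where 0% means no effect; nearly all actives have a fitted effect of over 45% in size; -100% = wells without RanGTP and RCC1; the record marks most hits as doubtful in a second field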
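Quantitative HTS using a FRET biosensor: 0.1 uM Rango, 0.25 uM importin beta, 0.6 uM Ran, 2 mM GTP, 0.2 uM RCC1 final, PBS with DTT, Tween-20 and BSA. Post-read taken 45 min after Ran addition.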
Rango-impB inh = inhibitors of Rango-importin beta complex formation; Q14974; Rango CFP/YFP FRET sensor + importin beta, 45 min; Potency, µM (doses to about 92.2 µM), for inactives: at the top dose inhibition of complex formation; 0.031% of 340,000 active; AID 540263; active = rising FRET ratio curve, often small or poorly fitted; inconclusive = mostly compound fluorescence or quenching in the first reads; inactive = flat curves in all reads;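 also: potency is read from the fitted curve at half-maximal effect; 0% = DMSO wells and 100% = buffer wells lacking importin beta; nearly all actives have a fitted effect of over 15% in size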
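FRET biosensor Rango (snurportin 1 IBB between N-terminal EYFP and C-terminal Cerulean), 50 nM in PBS/1 mM DTT/0.02% Tween-20/0.1% BSA, preincubated 5 min RT with compound; 0.125 microM importin beta added, 45 min RT, CFP/YFP FRET ratio read.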
miR-21 reporter = raises the signal of a miR-21 reporter; Potency, µM (highest dose often 38.3 µM), for the others: top-dose reporter change, positive = more light; 340,000 tested, under 10 active; HeLa miR-21 FLuc reporter, luciferase, 48 h; active = well fitted rising curve with a large enough effect; inconclusive = small, poorly fitted or top-dose-only effect; inactive = no such curve, though single readings can be large or run the other way;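 also: % of control where 0% means no effect; miR-21 action dims this reporter so a rising signal means less miR-21 action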
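HeLa cells endogenously expressing miR-21, stably carrying CMV-driven firefly luciferase with a downstream miR-21 binding site, 2000 cells/well. Titrations up to approximately 40 uM, 48 hours; luciferase luminescence read.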
* hit, by the source's call; ? = inconclusive; / = not tested or not shown; & = joins results of further samples.

SMILES | GLA inh pH 4.5 | Rango dissoc inh | Rango-impB inh | miR-21 reporter
COc1cccc(C(=O)Nc2nnc(S(=O)(=O)N3CCCC3)s2)c1 | / | 7% | -0.2% | -15%&-21%
O=C(CCS(=O)(=O)c1ccc(Br)cc1)N1CCCCCC1 | / | -1% | -2.9% | -10%
Cc1ccc(-c2nnc(NCCCO)c3ccccc23)cc1 | / | -4% | -0.6% | -5%
COC(=O)c1ccc2c(c1)NC(=O)CS2 | -28 | 6% | -0.8% | -1%
CCn1c(SCC(=O)c2c(N)n(C)c(=O)n(C)c2=O)nnc1-c1ccccc1 | 1 | / | / | -2%
O=C(NCC(c1cccnc1)N1CCN(c2ccccc2F)CC1)c1ccccc1 (stereo not drawn) | 0 | 5% | -1.8% | 10%
COc1cccc(CNC(=O)COc2cc3c(c4oc(=O)cc(C)c24)CCC(C)(C)O3)c1 | / | -10% | -0.6% | -2%
O=C1CN(c2ccccc2)C(=S)N1C(=O)c1ccccc1 | / | -16% | -2.3% | -46%
CCCCc1nc2ccccc2c(=O)n1NC(=O)c1c(O)c2ccccc2n(C)c1=O | 3 | 2% | 4.7% | -1%
CN1CC[C@]2(CCN3CCc4c(oc5ccccc45)[C@@H]3C2)N(C)C1=O | / | ? | -3.0% | /
N#C/C(=C/C1=C(N2CCOCC2)C(=C/c2cccc([N+](=O)[O-])c2)/CC1)C(=O)Nc1ccccc1F | / | -14% | 2.5% | /
CCN(CC)S(=O)(=O)c1ccc(Cl)c(NC(=S)NC(=O)C2CCCC2)c1 | / | -16% | 1.6% | /
COc1ccccc1N(CC(=O)Nc1cc(C)on1)S(=O)(=O)c1ccc(Cl)cc1 | -6 | 9% | 0.5% | 7%
O=C(NNC(=O)c1ccccc1[N+](=O)[O-])Nc1ccc(Cl)cc1 | 1 | 11% | 0.0% | -23%
COc1ccc(NC(=O)N2CCCC(C(=O)NC(C)C)C2)cc1 (stereo not drawn) | 2 | -3% | ? | -9%
CCC1CCCCN1C(=O)COC(=O)CSc1ccc(C(N)=O)cc1[N+](=O)[O-] (stereo not drawn) | / | 3% | -0.6% | /
COCCN(C(=O)COC(=O)COc1ccc2c(c1)CCC2)c1c(N)n(Cc2ccccc2)c(=O)[nH]c1=O | / | -5% | -2.2% | /
CCOC(=O)c1cnc2c(C(F)(F)F)cccc2c1N1CCN(C)CC1 | / | 4% | 9.5% | -10%
Cc1ccccc1NC(=O)CC1SC(=Nc2ccc(O)cc2)NC1=O (stereo not drawn) | -1 | 0% | -0.4% | -12%
Cc1cc(C(C)(C)C)cc(S(=O)(=O)Nc2ccc(O)c(C(=O)O)c2)c1C | 3 | 0% | 5.0% | -1%
CC(C)Cn1c(SCC(=O)NC2CCCc3ccccc32)nc(O)cc1=O (stereo not drawn) | 1 | -13% | -6.0% | -6%
Cc1c(N/C=C/C(=O)C(F)(F)F)c(=O)n(-c2ccccc2)n1C | -8 | 4% | 5.1% | 0%
Cc1ccc(-c2nnc(N3CCCCC3)c3ccccc23)cc1S(=O)(=O)N(C)C | 8 | 29% | -2.5% | -1%
COc1ccc(CNC(=O)c2ccc(CS(=O)(=O)Cc3ccccc3F)o2)cc1 | -4 | 6% | 1.1% | 13%
Cc1noc(C)c1CCC(=O)NC1CCCN(Cc2ccc(Cl)cc2)C1 (stereo not drawn) | / | -1% | -0.4% | -1%
COc1cc(C2C(=O)c3ccccc3C2=O)ccc1O | / | ? | ? | 0%
S=C(NCc1ccccc1)NCc1ccc2c(c1)OCO2 | 6 | -12% | ? | -6%
O=c1[nH]c2ccc(S(=O)(=O)N3CCN(C4CCCCC4)CC3)cc2[nH]c1=O | -4 | 2% | -3.4% | 0%
COc1ccc(C(=O)N/N=C\c2coc3ccccc3c2=O)cc1 | -9 | ? | 0.0% | -1%
COc1ccc(S(=O)(=O)N(C)c2ccc(C(=O)NCC3CCCO3)cc2)cc1OC (stereo not drawn) | / | 12% | -2.2% | -14%
Cc1cccc(N2C(=O)CC(N3CCN(c4cccc(C(F)(F)F)c4)CC3)C2=O)c1 (stereo not drawn) | -16 | -1% | -1.9% | -12%
CC(C)c1ccc(S(=O)(=O)N(C)C2(C)CCS(=O)(=O)C2)cc1 (stereo not drawn) | / | 30% | -4.2% | /
CC(=O)N1CCN(c2ccc(NC(=O)c3ccc(Br)o3)cc2Cl)CC1 | -3 | 6% | 4.0% | -17%
Cc1ccc(S(=O)(=O)CCC(=O)Oc2ccc3c(C)cc(=O)oc3c2)cc1 | / | -15% | ? | /
COc1ccccc1N1C(=O)Cc2ccccc2C1=O | / | -24% | ? | 6%
CCNC(=O)CC1C(=O)N(c2ccc(F)cc2)C(=O)N1CCc1ccc(OC)cc1 (stereo not drawn) | -1 | 0% | -2.4% | -1%
Cc1cc(NC(=O)CCC(=O)N(CC(=O)NC2CCCC2)c2ccc3c(c2)OCCO3)no1 | 10 | -12% | -3.8% | -3%
COc1cc(CNc2ncn[nH]2)ccc1OCC(=O)NC(C)(C)C | 2 | 19% | -2.3% | -1%
O=C(CSc1nnc(-c2ccccc2)n1-c1ccc(Cl)cc1)N/N=C/c1ccccc1C(=O)O | 1 | 7% | -1.2% | -8%
C/C(=N\NC(N)=S)C1C2C3CC4C5CC(C42)C1C53 (stereo not drawn) | -6 | 21% | 4.0% | ?
O=C(c1ccccc1NS(=O)(=O)c1ccc(Br)s1)N1CCOCC1 | 1 | -2% | -1.9% | -1%
Cc1c([N+](=O)[O-])cc(C(=O)Oc2ccc(Br)cc2C(=S)N2CCCCC2)cc1[N+](=O)[O-] | -5 | 5% | -2.4% | -4%
CC(C)[C@H](NC(N)=O)C(=O)Nc1cccc(S(=O)(=O)N2CCOCC2)c1 | -4 | 10% | -9.5% | -1%
CCc1sc(C(=O)Nc2cccc(C(C)=O)c2)cc1C | 0 | 1% | 0.2% | -44%
Cc1ccc(N2C(=O)/C(=C/c3ccco3)SC2=S)cc1 | 2 | 2% | -0.4% | -20%
CCC(=O)N(Cc1cc(=O)[nH]c2ccccc12)C1CCCCC1 | 2 | -5% | 0.3% | -6%
CC(Sc1nc(C(F)(F)F)nc2ccccc12)C(=O)NC1CCCC1 (stereo not drawn) | / | 8% | -2.5% | /
CCC(=O)NC(=S)Nc1ccc(NC(=O)c2ccco2)c(OC)c1 | 7 | -3% | -1.3% | -28%
COc1ccccc1N(C)S(=O)(=O)c1ccc(C(=O)OCC(=O)NCCC2=CCCCC2)cc1 | -3 | 7% | -0.2% | 0%
CCC(C)(C)n1nnnc1C(C(C)C)N(Cc1cccnc1)Cc1ccco1 (stereo not drawn) | 7 | 0% | 3.2% | 0%
C(=C\c1ccccc1)/CN1CCN(Cc2ccc3c(c2)OCO3)CC1 | / | 2% | -1.9% | 0%
COc1ccc(-n2cc(CN(C)Cc3n[nH]c(=O)[nH]3)c(-c3cccc(F)c3)n2)cc1 | 4 | 1% | 0.8% | -9%
CC(=O)N1CCN(C(=S)NC(=O)c2c(-c3ccccc3Cl)noc2C)CC1 | -3 | 1% | -0.4% | -4%
O=[N+]([O-])c1ccc2nc(-c3ccccc3)n(OCc3ccc(Cl)cc3)c2c1 | 1 | 12% | -1.0% | -36%
S=C(NCc1ccco1)NCC(c1ccco1)N1CCCCC1 (stereo not drawn) | 3 | ? | 2.9% | -1%
CN(Cc1cnccn1)C(=O)C1CCC(=O)N(CCc2ccc(Cl)cc2)C1 (stereo not drawn) | / | -13% | -2.6% | -1%
COc1ccc(NC(=O)CCNS(=O)(=O)c2ccc(Cl)c([N+](=O)[O-])c2)cc1S(N)(=O)=O | / | -2% | 1.7% | 0%
CCS(=O)(=O)c1nc2ccccc2n1CC(=O)N1CCCCC1 | 8 | 6% | -2.1% | -1%
CCOC(=O)C1(CCOc2ccccc2)CCN(C(=O)c2ccc(-n3cccn3)cc2)CC1 | -13 | -16% | 1.3% | -1%
COc1cc(OC)cc(C(=O)OCCCOC(=O)c2cc(OC)cc(OC)c2)c1 | / | 2% | 0.7% | -1%
Next part.
SMILES | GLA inh pH 4.5 | Rango dissoc inh | Rango-impB inh | miR-21 reporter
O=C(Nc1cccc(Cl)c1)c1ccc(NCCCN2CCOCC2)c([N+](=O)[O-])c1 | -10 | -1% | 7.3% | 1%
Cc1cc(C(=O)NN=C2CCCCCC2)c(C)o1 | 6 | -22% | 5.3% | -39%
COc1ccc(/C=N/Nc2nccnc2Cl)cc1 | 2 | -6% | ? | -14%
COC(=O)c1c(NC(=S)NNS(=O)(=O)c2ccc(OC)cc2OC)sc2c1CCCCCC2 | / | -1% | 0.4% | -2%
COc1ccc2[nH]cc(C(=O)CN3CCN(C(=O)c4ccco4)CC3)c2c1 | -7 | -3% | -0.3% | -8%
O=C(NCCCN1CCOCC1)c1ccc2c(=O)n(Cc3cccc(Br)c3)c(=S)[nH]c2c1 | / | 20% | 0.0% | 7%
COc1cc(/C=C/C(=O)OCC(=O)NCCCc2ccccc2)ccc1O | / | ? | ? | /
CCOc1ccc(NC(=S)N2CCC(NC(=O)c3ccccc3)CC2)cc1 | / | -8% | -2.7% | 0%
CCCn1c(C)cc(C(=O)CSc2nc3ccccc3c(=O)n2Cc2ccco2)c1C | 1 | 23% | 2.3% | -46%
O=C(Nc1ccc(Cl)cc1F)C1CC1c1ccccc1 (stereo not drawn) | / | -4% | 0.2% | -21%
CN(C)c1ccc(/C=N/N=C2/NC(=O)/C(=C/c3ccc([N+](=O)[O-])cc3)S2)cc1 | 2 | -17% | ? | 3%
COc1cccc(-c2nn(-c3ccc(C)cc3)cc2C(=O)NCC(c2cccs2)N2CCOCC2)c1 (stereo not drawn) | / | 0% | 1.4% | /
CN1CCN(Cc2cccc(Oc3ccccc3)c2)CC1 | -3 | 18% | 3.9% | -8%
COc1ccc(C)cc1NC(=O)CCN1CC(C)OC(C)C1 (stereo not drawn) | 6 | -2% | 0.0% | -2%
O=C(NCc1ccc2c(c1)OCO2)c1cccnc1Cl | -8 | -25% | -1.1% | -2%
O=C(Nc1cccc(-c2cn3cccnc3n2)c1)c1ccc(Br)o1 | 9 | 2% | 2.1% | -6%
O=C(NCc1ccco1)C1c2ccccc2Oc2ccccc21 | 1 | 2% | ? | 0%
Fc1ccccc1-c1nc(NCc2ccco2)c2ccccc2n1 | 0 | -9% | -1.0% | 3%
COC(=O)C1=C(C(=O)OC)[C@@H]2N(C)c3ccccc3[C@@]23C[C@@H](CO)N=C3N1 | 11 | 0% | -2.3% | /

An excerpt (hit frequency here may not be typical).
